MLL AF4-AF9 inh: MLL-AF4/AF9 protein interaction inhibition. P42568. AlphaScreen, biotin-AF4 peptide binding to FLAG-AF9. inhibition, % at 10 µM. 0.47% of 350,000 active. AID 651704;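 active = every replicate reaching a set inhibition limit, whatever the replicate mean, cut at about 25% in these data; inconclusive = mean inhibition reaches that limit but some replicates miss it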;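 note: 0% = plate neutral control median and 100% = total signal loss; the record names both 10 and 1 µM as test concentration; the first replicate is given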
RanGTP-Imp inh: disruptors of Ran-importin-beta complex formation – biochemical, FRET, CFP-Ran, YFP-importin-beta, homogeneous, primary screen; cell-free CFP-Ran/YFP-importin-beta FRET ratio; inhibition, % (test concentration not listed); 1.1% of 300,000 active;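 active = most replicates above 15%; inconclusive = exactly half above 15%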;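 note: 0% = DMSO wells and 100% = Ran loaded with GDP instead of GTP; wells of about 40 µL received 100 nL stock; the first replicate is given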
HNF4A DNA FP: change in binding of human HNF4 alpha to DNA | 0.3% of 360,000 active | P41235 | HNF4a-FITC DNA binding, fluorescence polarization, 1 h | AID 1224865 | activity change, % at 10 µM; in the data active = activity change above about 30%, passing the limit was not always enough;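 note: controls were the assay level and a saturating level of protein; the project sought stronger binding though the title names inhibitors; some compounds called inactive have numbers as strong as hits; positive values seem to mean higher polarization but the record does not say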
Target sequence (P41235 whole entry, looked up): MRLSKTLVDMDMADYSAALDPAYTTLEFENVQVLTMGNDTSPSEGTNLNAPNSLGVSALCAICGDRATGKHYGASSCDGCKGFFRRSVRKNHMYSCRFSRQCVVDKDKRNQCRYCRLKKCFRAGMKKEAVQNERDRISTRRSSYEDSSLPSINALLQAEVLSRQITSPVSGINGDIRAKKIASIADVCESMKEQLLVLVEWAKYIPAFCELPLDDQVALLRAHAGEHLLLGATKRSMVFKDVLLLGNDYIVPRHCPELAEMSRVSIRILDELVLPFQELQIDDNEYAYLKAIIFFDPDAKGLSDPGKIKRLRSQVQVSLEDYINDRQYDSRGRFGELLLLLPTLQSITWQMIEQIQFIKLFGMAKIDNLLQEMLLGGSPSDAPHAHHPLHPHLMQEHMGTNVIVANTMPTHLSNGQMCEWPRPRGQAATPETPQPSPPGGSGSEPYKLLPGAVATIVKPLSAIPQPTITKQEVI
UCH37 DUB inh: human UCH37 deubiquitinating enzyme inhibition. purified proteasome/UCH37, Ub-AMC cleavage fluorescence. inhibition, % (no concentration beside the values). Q9Y5K5. 0.33% of 330,000 active;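 active = mean of two replicates above 20%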;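 note: 0% = compound-free wells with enzyme and 100% = wells lacking proteasome; stock transfer was 100 nL into about 20 µL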
Target sequence (Q9Y5K5 whole entry, looked up): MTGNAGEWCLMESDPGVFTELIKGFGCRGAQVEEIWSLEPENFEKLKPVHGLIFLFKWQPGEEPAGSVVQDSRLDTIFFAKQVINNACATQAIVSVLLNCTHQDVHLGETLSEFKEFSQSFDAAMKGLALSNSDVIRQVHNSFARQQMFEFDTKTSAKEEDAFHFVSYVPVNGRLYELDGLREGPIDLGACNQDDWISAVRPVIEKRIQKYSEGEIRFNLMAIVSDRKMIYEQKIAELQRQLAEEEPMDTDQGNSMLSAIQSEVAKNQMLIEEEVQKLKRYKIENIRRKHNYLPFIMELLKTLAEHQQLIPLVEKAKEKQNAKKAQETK
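Signal – fluorescence, ex 355 nm, em 460 nm · System – Proteasome-bound UCH37 · Input – 0.15 nM proteasome as dispensed · Timing – 30 min preincubation with enzyme, 25 min cleavage at room temperature · Read-out basis – percent inhibition of cleavage signal versus uninhibited and no-proteasome wells · Medium – Tris-HCl pH 7.4 with ATP-MgCl2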
E coli growth: inhibitors of Escherichia coli growth; OD600, 23 h; active compounds read low; OD600 absorbance (concentration not given with the values); 0.21% of 330,000 active; AID 1053175;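 active = OD600 absorbance below the run mean of sample wells minus 3.6 SD, in any replicate, cut at about 0.56 in these data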;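 note: stock transfer was 300 nL into about 60 µL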
FGF22 binding: shifts melting point of recombinant human FGF22. Q9HCT0. recombinant FGF22 thermal shift, SYPRO orange fluorescence; percent of sucrose octasulfate shift, DMSO zero. calls only at 9.99 µM. 1.5% of 340,000 active;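 active = melting point raised past a set limit in the mean and every replicate; inconclusive = no clear call; three in four hits are not shown here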
Target sequence (Q9HCT0 whole entry, looked up): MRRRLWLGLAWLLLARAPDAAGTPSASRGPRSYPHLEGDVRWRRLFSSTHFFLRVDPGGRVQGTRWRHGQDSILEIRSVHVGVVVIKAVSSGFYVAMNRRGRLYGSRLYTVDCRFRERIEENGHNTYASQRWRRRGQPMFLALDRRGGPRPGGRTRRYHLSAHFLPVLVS
Vif A3G: inhibitors of Vif binding to APOBEC3G peptide, primary screen, biochemical, TR-FRET, GST-Vif 1-94, biotin-A3G peptide, dose response retest (AID 1117319); TR-FRET GST-Vif / biotin-A3G peptide binding; higher % means a stronger effect; test concentration not given here; strong numbers were not always called active; inhibition, %; hits with a dose series show IC50 in µM; 0.57% of 260,000 active;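 active = above the screen mean plus three standard deviations and confirmed in dose response; inconclusive = results disagree or hit not tested in dose response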;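 note: Vif residues 1-94 fused to GST binding biotinylated APOBEC3G peptide 110-148; 0% = full assay without inhibitor and 100% = GST in place of GST-Vif; retest series ran down from 100 µM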
An asterisk follows results filed as active; i = inactive; ? = inconclusive; / = no result given; + = active, no number; & = joins results of further samples.

SMILES	MLL AF4-AF9 inh	RanGTP-Imp inh	HNF4A DNA FP	UCH37 DUB inh	E coli growth	FGF22 binding	Vif A3G
C[C@]12C=CC(=O)C=C1CC[C@@H]1[C@@H]2C(=O)C[C@@]2(C)[C@H]1CC[C@]2(O)C(=O)CO	-5.8	-3.5	0.5&2.7	-0.1&-0.9	0.679	i	/
CCOC(=O)C1=C(C)NC2=C(C(=O)CCC2)C1c1cc(OC)ccc1OC (stereo not drawn)	0.5	6.5	4.4	-2.6	0.654	i	-0.6%
O=C1C(Cl)=C(N2CCCCC2)C(=O)C(Cl)=C1c1cnc(N2CCCCC2)s1	/	-5.3	-3.0	-26.4	0.738	/	4.21µM*
Cc1onc(-c2c(F)cccc2Cl)c1C(=O)NC(C)c1ccccc1 (stereo not drawn)	1.5	4.9	1.5	0.8	0.655	i	/
N#Cc1c(NC(=O)CSc2ncccn2)oc(-c2ccccc2)c1-c1ccccc1	/	-3.4	2.2	4.8	0.748	/	0.6%
O=c1cc(-c2ccccc2)c2cc(Cl)ccc2[nH]1	-0.6	0.6	1.6	0.9	0.702	i	4.0%
CCC(C(=O)NCc1ccc(C)o1)n1nc(C)c2c(C)n(-c3ccccc3)nc2c1=O (stereo not drawn)	-0.9	2.2	-0.8	0.5	0.67	i	/
COc1ccc(CNC(=O)c2c([S-])n(-c3ccc(C)cc3)c3cccc[n+]23)cc1	1.0	5.0	-0.3	-1.0	0.654	i	/
COc1ccc(C(=O)Nc2ccc3nc4n(c(=O)c3c2)CCCCC4)cc1OC	-1.4	/	1.4	/	/	i	-5.5%
Cc1ccc(C(=O)OCC(=O)NCCNC(=O)COC(=O)c2ccc(C)o2)o1	1.4	7.2	1.2	-0.6	0.679	i	7.5%
CC(C)(C)C(=O)CN1C(=O)NC2(CCc3ccccc32)C1=O (stereo not drawn)	1.8	-0.3	-0.3	1.2	0.707	i	/
CCN(CC)C(=O)CN(c1ccc(F)c(Cl)c1)S(C)(=O)=O	/	-1.3	4.0	1.0	0.734	/	-10.2%
CCCNC(=O)C/C(C)=N/NC(=O)C(=O)Nc1ccccn1	-1.0	3.9	-0.6	/	/	i	/
Fc1ccc2nc(Nc3nc4cc5c(cc4s3)OCO5)sc2c1	/	0.2	-0.2	-34.5	0.692	/	/
O=C(Nc1ccccc1)N(Cc1ccc(Cl)cc1)CC(O)C(F)(F)F (stereo not drawn)	/	1.0	-1.3	1.3	0.685	/	-0.5%
Cc1ccc(C2N(C)c3ccccc3-c3nc4ccccc4n32)o1 (stereo not drawn)	/	-0.7	0.9	i	0.691	/	-0.6%
CN1C(=O)N(C)C2(c3ccccc3)Nn3c(s/c(=C/c4ccccc4)c3=O)=NC12c1ccccc1 (stereo not drawn)	/	-3.2	-1.4	/	/	/	13.7%
CN(C)S(=O)(=O)c1ccc(N2CCCC2)c(C(=O)NCCc2ccc(F)cc2)c1	-0.6	-0.3	-1.5	-0.9	0.67	i	2.6%
Cc1cccc(NC(=O)C(=O)NCC2CCCN2S(=O)(=O)c2cccs2)c1C (stereo not drawn)	-15.3	7.1	-4.6	1.4	0.647	i	-2.2%
CCN(CC)CCN1C(=O)C(=O)/C(=C(/O)c2c(C)[nH]c(C(=O)OC)c2C)C1c1ccccc1OC (stereo not drawn)	/	-2.7	1.5	5.9	/	/	4.0%&-1.4%
O=C(CSc1nc2ccccc2[nH]1)Nc1cccc(S(=O)(=O)N2CCOCC2)c1	-13.8	-0.1	2.6	3.5	0.646	+	/
O=C(O)CSc1nnc(COc2cccc3cccnc23)n1-c1ccc(Cl)cc1	-0.5	-1.0	1.5	-1.8	0.704	i	-1.1%
Nc1c(C(=O)N2CCCC2)sc2nc(-c3ccccc3)ccc12	-10.0	-47.4	2.6	-25.4	0.696	i	-7.1%
O=C(CN1CCCCC1CO)c1ccc(OC(F)F)cc1 (stereo not drawn)	-1.7	/	1.2	2.7	0.654	i	7.1%
CCN(CC(=O)c1c(N)n(C)c(=O)n(C)c1=O)c1cccc2ccccc12	/	-1.2	-1.5	-5.2	0.639	/	18.7%
CC(Oc1ccccc1)C(=O)N1CCN=C1SCc1ccccc1F (stereo not drawn)	8.4	4.6	-1.5	-1.1	0.671	i	13.6%
COc1ccc(Cl)cc1C(=O)Nn1c(C)nc2ccccc2c1=O	/	-1.0	1.4	3.1	0.703	/	24.0%
COc1ccc(C2CC2C(=O)c2ccccn2)cc1 (stereo not drawn)	-3.2	0.0	6.1	0.1	0.659	i	2.6%
CCOc1cc(S(=O)(=O)N(CC)CC)ccc1Br	/	0.8	-3.5	3.1	0.672	/	5.0%
O=C(Nc1ccc(F)c(Cl)c1)c1cc(C2CCCCN2C(=O)c2ccc(Cl)cc2)on1 (stereo not drawn)	-0.3	/	-3.2	/	/	i	/
Nc1nnnn1/N=C/c1ccc(Cl)cc1	-0.2	-4.6	-2.1	/	/	i	-6.9%
Cc1ccc(NC(=O)N2CCCCC2)cc1NC(=O)N1CCCCC1	0.2	3.3	-0.1	0.7	0.671	i	/
O=C(Nc1ccc2oc(-c3ccccc3)nc2c1)C1CCCO1 (stereo not drawn)	-5.6	4.6	-3.1	-27.0	0.676	i	-8.5%
COc1ccc(OC)c(NC(=S)N2CCCC2)c1	-1.3	/	2.6	4.0	0.634	i	/
O=C(CNS(=O)(=O)c1cccs1)NCCc1ccc(Cl)cc1	0.2	-1.2	0.7	1.5	0.703	i	/
Cn1nc(C(=O)OCC(=O)Nc2sccc2C(N)=O)c2ccccc2c1=O	1.9	2.4	-1.2	2.3	0.708	i	-2.1%
CCN(CC)c1ccc(/C=C/c2ccc3ccc(OC)cc3[n+]2CC)cc1	58.8*	3.0	9.7	3.7	0.502*	i	-24.7%
O=C(NNC(=O)c1ccccc1[N+](=O)[O-])c1ccccn1	0.4	3.8	-1.1	8.0	0.676	i	/
Brc1ccc(-c2cn3nc4c(nc3n2)CCCC4)cc1	/	61.1*	-9.3	-68.7	0.757	/	?
O=C(O)c1ccc(C=NN=C2c3ccccc3-c3ccccc32)cc1	-0.1	/	-3.6	/	/	i	-0.5%
C=CCc1ccc(OCCCNCc2ccccc2)c(OC)c1	3.8	0.9	4.3	2.8	0.702	i	/
CCOC(=O)C1CCN(CC(C)(C)NS(=O)(=O)c2ccccc2)CC1	1.4	11.0	1.0	3.2	0.697	i	/
CCCOC(=O)c1ccc(NC(=O)Cc2cccs2)cc1	1.0	-3.4	-0.6	4.9	0.682	i	7.1%
Cc1ccc(CNC(=O)C2=NNC(=O)CC2)cc1	/	0.4	1.2	0.6	0.66	/	3.9%
CN(C)CCCNC(=O)C[C@H]1C[C@H](C(=O)N2CCOCC2)[C@@]2(CCC3CCCC3)c3[nH]c4cc(CCC(=O)N(C)C)ccc4c3CCN2C1=O	0.6	/	3.1	0.7	0.687	i	-0.3%
CCOC(=O)C1CCCCN1S(=O)(=O)c1cc2c(cc1C)NC(=O)CO2 (stereo not drawn)	-1.9	0.4	0.9	1.9	0.689	i	1.8%
O=C(CN(c1ccccc1)S(=O)(=O)c1ccccc1[N+](=O)[O-])N1CCCC1	0.7	1.7	-1.4	5.2	0.665	i	/
COc1ccccc1CN1C(=O)[C@H]2Cc3c([nH]c4ccccc34)C(C)(C)N2C1=O	-5.3	0.0	-2.5	5.2	/	i	/
O=C1C2C(c3ccccc3)CC=CC2[C@H](c2cccc([N+](=O)[O-])c2)N1Cc1ccccc1 (stereo partly drawn)	4.1	-3.1	1.6	0.6	/	i	/
O=C(O)/C=C/C(=O)N1Cc2cc3ccccc3nc2C1	0.8	6.1	-6.1	-1.2	0.693	i	?
Cc1nnc(SCc2ccc(F)cc2)n1NC/C=C/c1ccccc1	/	-0.4	1.0	1.0	/	/	-12.8%
COc1ccc(/C=N/Nc2nc(N3CCCC3)nc(N3CCCC3)n2)cc1O	/	-2.3	0.6	/	/	/	6.7%
CC(=O)c1ccc(NC(=O)CSc2nc(N3CCOCC3)nc(N3CCOCC3)n2)cc1	-1.5	-0.4	-4.2	1.9	0.678	i	4.7%
C=CCNC(=S)NNC(=O)c1csc(CC)c1	/	2.4	-0.9	0.3	0.675	/	-14.0%
CCn1c(SCC(=O)Nc2ccc3c(c2)OCCO3)nnc1C1CC1	-5.7	-1.7	-0.3	-1.6	0.703	i	/
COc1ccc(C(=O)Nc2cccc(-c3cc4ccccc4oc3=O)c2)cc1[N+](=O)[O-]	/	/	2.4	5.3	0.676	/	6.2%
O=C(COC(=O)/C=C/c1ccccc1)NC1CCCC1	3.5	/	-2.3	1.0	0.685	i	/
O=C(NC1CC1)c1ccc(Cl)c(S(=O)(=O)N2CCOCC2)c1	2.9	5.7	-1.6	6.6	0.666	/	-4.0%
O=[N+]([O-])c1cc(Br)c(Nc2ccccc2)c([N+](=O)[O-])c1	6.8	0.8	1.7	5.3	0.644	i	0.1%
C=CCn1cc(CN2CCC(C(=O)Nc3ccc(Oc4cccnc4)cc3)CC2)c(C)n1	2.4	-3.1	6.3	3.8	0.689	i	/
(further entries)
SMILES	MLL AF4-AF9 inh	RanGTP-Imp inh	HNF4A DNA FP	UCH37 DUB inh	E coli growth	FGF22 binding	Vif A3G
CN1Cc2sc(NC(=S)NC(=O)c3ccccc3)c(C#N)c2CC1(C)C	/	144.8*	/	/	/	i	-2.3%
CCOCCCn1c(SCC(=O)Nc2ccc(C(N)=O)cc2)nc2ccccc2c1=O	/	-3.6	1.5	2.1	0.717	/	-5.2%
Cc1ccc(OCCNC(=O)CNC(=O)c2ccccc2Cl)cc1	-1.9	/	2.7	4.5	0.672	i	-0.6%
CCc1nnc(NC(=O)C2CCCCN2S(=O)(=O)c2ccccc2)s1 (stereo not drawn)	-0.5	-3.0	-1.6	0.0	0.69	i	12.2%
N/C(=N\OC(=O)COc1ccc(Br)cc1)c1cccnc1	/	-1.9	1.3	4.9	0.647	/	2.8%
CCC1CCCCN1CCCCOc1cccc(Cl)c1 (stereo not drawn)	3.8	-3.7	-5.4	2.2	0.679	i	2.5%
O=C(CC[C@H]1O[C@@H](n2cnc3c(NC(=O)c4ccccc4)ncnc32)[C@H](O)[C@@H]1O)NCc1cccs1	0.7	/	-3.7	/	/	i	/
Cc1ccccc1-n1c([C@@H]2C[C@H]2c2ccccc2)n[nH]c1=S	/	12.1	-0.1	2.8	0.716	i	2.2%
O=C(NC(=O)N1CCN(c2ccccc2)CC1)c1ccc(Cl)cc1	/	3.4	0.0	1.2	0.725	/	-6.9%
O=C(NCCN1C(=O)C2C3C=CC(C3)C2C1=O)Nc1ccccc1O (stereo not drawn)	0.4	0.1	2.0	-0.3	0.761	i	0.3%
CC(=O)Nc1ccc(-c2csc(NC(=O)Cc3ccccc3F)n2)cc1	1.6	-5.1	-0.7	-1.2	0.62	i	/
CCOC(=O)C(CSCC(=O)c1ccc(Cl)cc1Cl)NC(=O)OC(C)(C)C (stereo not drawn)	/	2.4	-1.0	3.9	0.737	/	12.1%
Nc1nnc(SCC(=O)c2ccco2)s1	/	-1.6	-2.2	4.7	0.649	/	24.8%
CCOc1ccc2nc(SCC(=O)NCc3ccc(OC)cc3)[nH]c2c1	0.0	4.2	1.5	3.9	0.673	i	-6.0%
CCOc1ccccc1-c1nc(C(N)=O)c2[nH]c(=O)n(-c3ccccc3)c2n1	/	-0.4	0.0	-1.9	0.702	/	-11.5%
COCCCn1c(=O)/c(=C\c2ccccc2OC(F)F)s/c1=C(/C#N)C(N)=O	-1.6	5.7	-3.9	/	/	i	1.1%

Compound activity as filed in PubChem BioAssay.

This is a subset, so the mix of outcomes need not match the whole.
